LANA-H2B inh – blocks KSHV LANA binding to histone H2A/H2B; inhibition, % (concentration not given with the values); AID 2629; hit rate 0.6% among 320,000; Q9QR71; cell-free LANA-H2A/H2B peptide, fluorescence polarization; in the data active = inhibition mostly above about 10%, no sharp cut-off; inactive = mostly below about 6.7%;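 also: stock transfer was 7.5 nL into about 10 µL; 0% = median of vehicle wells and 100% = median of positive control wells; one replicate is shown; the record names a cut of 25% in any replicate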
UCH37 DUB inh – inhibitors of human deubiquitinating enzyme UCH37 | Q9Y5K5 | purified proteasome/UCH37, Ub-AMC cleavage fluorescence | inhibition, % (test concentration not listed) | hit rate 0.33% among 330,000 | AID 588478;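 active = mean of two replicates above 20%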;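 also: 0% = compound-free wells with enzyme and 100% = wells lacking proteasome; stock transfer was 100 nL into about 20 µL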
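Reagent: Ub-AMC substrate; assay system: Proteasome-associated human UCH37 deubiquitinase; controls: no-proteasome and no-compound wells; read-out: % inhibition of Ub-AMC cleavage fluorescence; timing: 30 min preincubation with enzyme, 25 min cleavage at room temperature; signal: AMC fluorescence from Ub-AMC cleavage, excitation 355 nm, emission 460 nm; buffer or medium: Tris-HCl pH 7.4 plus ovalbumin, ATP-MgCl2, DTT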
HNF4A DNA FP – change in binding of human HNF4 alpha to DNA; P41235; HNF4a-FITC DNA binding, fluorescence polarization, 1 h; activity change, % at 10 µM; hit rate 0.3% among 360,000; AID 1224865; in the data active = activity change above about 30%, passing the limit was not always enough;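 also: controls were the assay level and a saturating level of protein; the project sought stronger binding though the title names inhibitors; some compounds called inactive have numbers as strong as hits; positive values seem to mean higher polarization but the record does not say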
Target sequence (P41235 whole entry, looked up): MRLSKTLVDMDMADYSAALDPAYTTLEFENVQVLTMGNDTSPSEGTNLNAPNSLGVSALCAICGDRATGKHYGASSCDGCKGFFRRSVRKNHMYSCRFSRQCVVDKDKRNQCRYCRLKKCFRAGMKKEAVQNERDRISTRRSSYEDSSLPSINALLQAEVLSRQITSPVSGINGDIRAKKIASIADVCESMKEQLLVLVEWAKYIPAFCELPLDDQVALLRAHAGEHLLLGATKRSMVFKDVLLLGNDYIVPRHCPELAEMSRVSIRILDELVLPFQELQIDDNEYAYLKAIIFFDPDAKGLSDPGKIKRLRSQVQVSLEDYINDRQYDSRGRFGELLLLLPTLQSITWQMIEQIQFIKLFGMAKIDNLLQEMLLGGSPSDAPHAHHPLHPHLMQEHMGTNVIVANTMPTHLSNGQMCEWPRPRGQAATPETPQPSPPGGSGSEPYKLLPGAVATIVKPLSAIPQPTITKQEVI
ALR inh – human ALR oxidase inhibition via reduced H2O2. hit rate 3.8% among 290,000. purified ALR, DTT oxidation, H2O2 HRP-luminol luminescence. inhibition, % (concentration not given with the values). P55789;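 active = mean and each replicate at 75% or more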;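 also: stock transfer was 7.5 nL into about 7.5 µL; 0% = neutral wells and 100% = wells with inactivated enzyme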
Target sequence (P55789 whole entry, looked up): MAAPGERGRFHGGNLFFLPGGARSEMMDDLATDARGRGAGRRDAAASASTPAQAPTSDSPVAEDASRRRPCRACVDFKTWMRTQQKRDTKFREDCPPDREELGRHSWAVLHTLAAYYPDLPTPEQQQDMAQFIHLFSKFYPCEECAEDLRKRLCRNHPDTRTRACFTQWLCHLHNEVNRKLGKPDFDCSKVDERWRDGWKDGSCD
Ecoli growth – E. coli growth inhibition | Escherichia coli growth, OD600, 23 h; hits give low values | OD600 absorbance (no concentration beside the values) | hit rate 0.21% among 330,000 | AID 1053175;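 active = OD600 absorbance below the run mean of sample wells minus 3.6 SD, in any replicate, cut at about 0.56 in these data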;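 also: stock transfer was 300 nL into about 60 µL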
Beta2AR agonist – activates human beta-2 adrenergic receptor causing internalization; Am2.2-beta2AR cells, FAP receptor internalization, flow cytometry; reference of the scale not given here; hit rate 0.43% among 340,000; P07550; response, % (test concentration not listed); AID 504454;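 active = response above a set limit, near 3 SD of response in nonfluorescent compounds, cut at about 42% in these data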;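 also: stock transfer was 100 nL into about 11 µL; a reference agonist was the positive control; negative values mostly stem from fluorescent compounds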
Target sequence (P07550 whole entry, looked up): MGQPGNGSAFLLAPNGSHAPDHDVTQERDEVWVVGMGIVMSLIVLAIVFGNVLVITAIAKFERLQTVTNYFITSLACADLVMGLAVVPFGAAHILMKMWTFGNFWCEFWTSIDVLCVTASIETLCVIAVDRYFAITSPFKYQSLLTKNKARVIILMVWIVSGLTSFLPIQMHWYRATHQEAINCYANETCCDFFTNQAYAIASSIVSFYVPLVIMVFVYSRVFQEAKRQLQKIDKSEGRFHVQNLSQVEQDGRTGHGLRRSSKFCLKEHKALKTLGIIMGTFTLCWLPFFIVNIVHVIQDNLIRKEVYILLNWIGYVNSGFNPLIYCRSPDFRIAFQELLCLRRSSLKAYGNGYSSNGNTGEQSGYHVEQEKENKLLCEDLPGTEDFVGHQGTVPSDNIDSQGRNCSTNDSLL
FGF22 binding – shifts melting point of recombinant human FGF22; hit rate 1.5% among 340,000; recombinant FGF22 thermal shift, SYPRO orange fluorescence; percent of sucrose octasulfate shift, DMSO zero; calls only at 9.99 µM;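 active = melting point raised past a set limit in the mean and every replicate; three in four hits are not shown here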
An asterisk follows results filed as active; i = inactive; x = not tested or not shown. These rows are one share of the data, so the mix of outcomes need not match the whole.

SMILES	LANA-H2B inh	UCH37 DUB inh	HNF4A DNA FP	ALR inh	Ecoli growth	Beta2AR agonist	FGF22 binding
O=C(Nc1ccc2c(c1)OCCO2)c1cccnc1Oc1ccc(Cl)cc1	-1.5	2.5	0.9	-4	0.66	-9	i
Nc1nnnn1/N=C/c1ccccc1C(F)(F)F	6.2	x	-0.3	-14	x	1	x
Cc1ccc(C(=O)NC(=S)Nc2ccc(NC(=O)c3cccs3)cc2)cc1[N+](=O)[O-]	-0.4	8.8	-2.9	-2	0.73	-20	i
OCCC1CN(Cc2cccc3c2OCO3)CCN1Cc1ccccc1 (centres undefined)	-1.0	-0.7	-0.6	6	0.65	2	i
COc1ccc(Cl)cc1NC(=O)CCCNC(=O)c1ccc(Cl)cc1	-0.7	-0.9	7.6	3	0.67	15	i
COc1ccccc1N1CCN(C(=O)C2CCCN(S(=O)(=O)c3ccc(C)cc3)C2)CC1 (centres undefined)	4.3	x	-8.8	x	x	6	i
Cc1sc2nc(-c3ccncc3)[nH]c(=O)c2c1-c1ccccc1	3.0	-102	x	-11	0.69	x	x
CC(=O)N(/N=C/c1ccc(C)cc1)c1nc(CCl)cs1	3.1	x	0.3	7	x	13	i
CC(C)CN1C(=O)/C(=C/c2cccs2)NC1=S	-5.8	6.5	4.9	99*	0.7	-14	x
CCOC(=O)C1=C(CN2CCN(C(=O)c3ccco3)CC2)NC(=O)NC1c1ccc(Cl)cc1 (centres undefined)	-0.3	3.7	0.6	-4	0.65	-2	i
Cc1cccc(N(C(=O)c2csnn2)C(C(=O)NCc2ccccc2)c2cccs2)c1 (centres undefined)	1.8	2.8	-1.7	1	0.67	-4	i
Cn1c(N)c(C(=O)COC(=O)c2ccc(Cl)c(S(=O)(=O)N3CCCC3)c2)c(=O)n(C)c1=O	1.0	4.5	0.7	x	0.65	0	i
O=C(NCc1ccccc1F)C1CCN(C(=O)NCc2ccccc2)CC1	-0.8	2.1	-2.1	-2	0.65	3	x
CCOC(=O)C(C)NC(=O)c1cn(-c2ccc(OC)cc2)c(=O)c2ccccc12 (centres undefined)	5.8	6.4	-1.7	-7	0.7	-1	i
CCC(C(=O)OC(C)C)c1ccc2ccccc2c1 (centres undefined)	-1.8	5.1	3.7	-6	0.62	-1	i
Cc1ccc(C(=O)N2CCN(S(=O)(=O)c3ccccc3C#N)CC2)cc1S(=O)(=O)N1CCOCC1	3.8	0.0	-2.2	-5	0.68	-1	i
Cc1nc(SCc2ccc([N+](=O)[O-])cc2)nc2ccccc12	7.4	-0.8	-1.6	-3	0.67	-19	x
COc1ccccc1Cc1nnnn1CC(=O)O	-7.2	0.8	1.1	4	0.67	0	x
COc1ccc(CCN(C(=O)c2snc(C(N)=O)c2N)C(C(=O)NCC2CCCO2)c2ccc(F)cc2)cc1OC (centres undefined)	x	-6.2	0.5	x	0.68	2	i
COCCNC(=O)CN(C)S(=O)(=O)c1ccc(Br)cc1	-2.5	0.7	-1.1	-10	0.69	-4	x
CCCCc1nc2cc(C(=O)N3CCCCC3C(=O)OC)ccc2o1 (centres undefined)	4.2	1.4	0.9	0	0.71	-7	i
O=C(c1ccc(Cl)cc1)N1CCN(c2ncccn2)CC1	-4.2	-4.3	-4.3	4	0.7	-3	i
O=C(Nc1cccc(Cl)c1)c1ccc(F)c(S(=O)(=O)NCc2ccc3c(c2)OCO3)c1	-4.7	3.7	-1.9	1	0.71	-5	x
Cc1cc(S(=O)(=O)N(C)CCc2ccccc2)ccc1-n1cnnn1	-1.0	3.3	-1.5	x	0.76	18	x
CCn1cc(CNCc2cn(-c3ccccc3C)nc2-c2ccc(OC)c(F)c2)cn1	-2.0	2.2	2.0	-2	0.68	-4	i

(listing goes on)
SMILES	LANA-H2B inh	UCH37 DUB inh	HNF4A DNA FP	ALR inh	Ecoli growth	Beta2AR agonist	FGF22 binding
S=c1[nH]nc(COc2ccc3c(c2)OCO3)n1-c1ccccc1	0.5	0.7	1.7	25	0.75	1	x
c1ccc2oc(-c3[nH]ncc3CN3CCC(N4CCSCC4)CC3)cc2c1	3.7	1.8	3.2	-12	0.67	2	i
O=C(Nc1ccc(CN2CCCCC2)cc1)Nc1ccccc1Cl	1.4	1.5	0.5	-3	0.69	7	i
COc1ccccc1Oc1cc(F)nc(N)n1	3.3	5.0	-0.8	-11	0.73	3	x
CC(C)=CC(=O)N1CCC(N2CCC(C(=O)NCC3CCCO3)CC2)CC1 (centres undefined)	-0.5	x	3.8	-1	x	-2	i
COc1ccccc1Cn1c(=S)[nH]c2cc(C(=O)NCC3CCCO3)ccc2c1=O (centres undefined)	4.2	1.2	6.0	33	0.71	2	i
COC(=O)c1c(C(=O)OC)c2n(c1C)CCC2	-3.3	1.3	1.7	-6	0.68	6	x
CCc1onc(C)c1C(=O)Nc1cc(C)ccc1OC	-1.4	3.2	0.8	1	0.72	-6	x
Cc1nnc(Nc2ccc3c(c2)ncn3C)c2ccccc12	-1.0	2.3	-1.3	-61	0.7	-1	x
CCC[C@@H]1C[C@@H](C(=O)NC(C(C)Cl)[C@H]2O[C@H](SC)[C@H](O)[C@@H](O)[C@H]2O)N(C)C1 (some centres undefined)	4.1	2.5	3.2	-8	x	-5	i
COc1ccc2oc(=O)c(C(=O)Nc3ccccc3-c3ccccc3)cc2c1	-4.8	4.4	1.3	x	0.71	9	x
CCCCOc1ccc(/C=C/C(=O)N(CC)CC(=O)Nc2ccc3c(c2)OCCO3)cc1OC	-6.6	-15	-1.3	-8	0.67	6	i
CCOc1c(C)cnc2c1c(=O)n(Cc1ccc(Cl)cc1)c(=O)n2C	17*	3.4	4.2	-1	0.68	-5	i
COC1(C)CC2C(CC1OC(=O)c1cc([N+](=O)[O-])cc([N+](=O)[O-])c1)C2(C)C (centres undefined)	-14	3.3	-0.4	-12	0.67	5	i
O=C(Oc1cccc2ccccc12)c1cc(Cl)nc2ccccc12	3.6	4.0	-1.1	3	0.73	6	i
Cn1c(CCc2ccccc2)nnc1SCC(=O)N1CCCC1	-3.3	2.1	-0.3	-25	0.8	-4	x
O=S(=O)(c1ccccc1)C1(C2CC(c3ccccc3)=NO2)CC(O)C1 (centres undefined)	-1.8	28*	-2.1	x	0.68	-3	i
CCCc1cnc(N2CCN(S(C)(=O)=O)CC2)nc1	3.4	-2.8	-2.8	-1	0.68	-5	i
COc1c(C)cc(C(=O)C2CCCN(C(=O)CCCn3cncn3)C2)cc1C (centres undefined)	0.6	3.4	-3.2	0	0.7	-2	i
NS(=O)(=O)c1ccc(CCNC(=O)c2ccc3c(c2)OCCO3)cc1	-1.2	5.3	3.6	-2	0.71	0	i
O=C1CCC([N+](=O)[O-])C(c2ccc(C(F)(F)F)cc2)N1 (centres undefined)	1.5	5.4	2.8	10	0.63	-5	i
Cc1ccc(-c2ccc(/C=C3\C(=O)ON=C3c3ccccc3)o2)c([N+](=O)[O-])c1	3.1	18	-3.1	x	0.71	18	x
CC(C)Oc1ccc(Cc2cnc(N)nc2N)cc1	-3.6	2.1	2.2	-19	0.046*	-1	x
COc1ccc(C(=O)Nc2cc(C)c(NC(=O)c3ccccn3)cn2)cc1	-6.7	-14	9.4	x	0.66	-3	i
Cc1cc(C2=NNC(=NC3CC3)SC2)c(C)n1Cc1ccco1	-1.7	7.5	3.3	x	0.68	-1	i

As entered above.
LANA-H2B inh, `Cc1sc2nc(-c3ccncc3)[nH]c(=O)c2c1-c1ccccc1` reads 3.0
ALR inh, `O=C(c1ccc(Cl)cc1)N1CCN(c2ncccn2)CC1` reads 4

Following part
SMILES	LANA-H2B inh	UCH37 DUB inh	HNF4A DNA FP	ALR inh	Ecoli growth	Beta2AR agonist	FGF22 binding
O=C(Nc1cccc(Cl)c1N1CCCC1)c1cc2ccccc2o1	-0.1	4.3	-1.6	-1	0.73	8	x
O=C(COc1ccccc1)Nc1ccc(CN2CCCCC2)cc1	3.4	0.8	-2.1	1	0.69	0	x
CCOc1ccc(N=C2NN=C(c3cc(C)n(CC4CCCO4)c3C)CS2)cc1 (centres undefined)	-36	4.6	1.9	x	0.68	0	x
CCCn1nnc(NC(=S)NC(=O)/C=C/c2ccco2)n1	-3.2	3.5	1.4	x	0.61	-7	i
CCCN(CCC)S(=O)(=O)c1ccc(C(=O)NCc2ccco2)cc1	-39	1.2	-3.9	14	0.65	0	i
COc1cc(/C=N/Nc2nc(C)cc(=O)[nH]2)cc(OC)c1O	6.4	x	-2.9	x	x	1	i
CS(=O)(=O)c1ccc(CNC(=O)C2(C(F)(F)F)C/C(=C/CCO)CCCO2)cc1 (centres undefined)	-2.3	4.1	-0.3	5	x	-1	i
CCOC(=O)CSc1nnc(NC(=O)c2ccco2)s1	1.7	4.0	2.6	7	0.7	4	i
COc1ccc(N2CCN(C(c3cccs3)C(C)NC(=O)c3ccco3)CC2)cc1 (centres undefined)	2.7	1.4	-1.5	x	0.65	5	x
COc1ccc(-c2cc(C(=O)N3CC4(C)CC3CC(C)(C)C4)no2)cc1OC (centres undefined)	55*	1.3	3.3	-8	0.64	6	i
Clc1ccc(OCc2nc(-c3ccncc3)no2)cc1	-7.8	1.4	-2.4	-10	0.69	-2	x
CCOC(=O)C(C(=O)Nc1nccs1)C1CCCCC1 (centres undefined)	-1.9	0.0	-2.3	1	0.68	8	x
CCN1CCN(CC(O)COCc2cc(OC)c(OC)c(OC)c2)CC1 (centres undefined)	0.5	1.7	-2.4	-7	0.68	0	i
O=C(NCCc1ccccc1)c1ccc2nc(N3CCOCC3)sc2c1	1.2	-0.7	-2.0	45	0.75	-7	i
Cc1ccc(NC(=O)CCn2cnc3ccccc3c2=O)cc1	-2.8	2.6	-3.8	-4	0.65	-2	x
COc1ccc(-n2nc3c(c2NC(=O)COc2ccccc2F)CS(=O)(=O)C3)cc1	-3.1	-0.1	-1.8	-5	0.73	-4	i
O=C(C[n+]1cc(-c2ccccc2)n2c1CCC2)c1cccs1	-6.5	1.7	7.8	4	0.67	-7	i
Cc1cccc(C)c1OCC(=O)Nc1ccc2c(c1)C(=O)NC2=O	-0.7	-11	4.0	0	0.72	-2	i
Cc1c(Cl)cnc(NC(=O)COC(=O)c2cccc(S(=O)(=O)N3CCc4ccccc4C3)c2)c1Cl	-3.4	-1.8	0.3	-18	0.7	15	i
CC(=O)O[C@@H]1[C@H](OC(=O)CC(C)C)c2c(ccc3ccc(=O)oc23)OC1(C)C	0.2	3.6	0.9	-20	x	-3	i
Cc1ccc(C(=O)N(CCN(C)C)CC2CCCN(Cc3ccccc3F)C2)cc1C (centres undefined)	5.9	0.7	-0.3	-3	0.66	7	i
COc1ccc(-c2nc3ccccc3c(=O)n2CCc2ccc(O)cc2)cc1	-1.5	3.7	3.3	71	0.67	5	i
O=C1C(Cl)=C(Nc2ccccc2)C(=O)c2ccccc21	-201	6.2	1.0	-2	0.68	14	i
O=C(NCCCN1CCN(c2ccccc2F)CC1)C1CCC(=O)N1C1CCCCC1 (centres undefined)	-5.8	1.1	0.1	6	0.7	4	x
COc1cc(OC)cc(C(=O)Nc2ccc3c(c2)n(C)c(=O)n3C)c1	2.4	2.5	-1.8	-4	0.72	4	i
OC1(c2ccccc2)CC(c2ccccc2)c2ccccc2O1 (centres undefined)	x	1.7	0.3	x	0.6	5	i

One compound at a time (already shown).
O=C(Nc1cccc(Cl)c1N1CCCC1)c1cc2ccccc2o1 is entered as LANA-H2B inh: -0.1; UCH37 DUB inh: 4.3; HNF4A DNA FP: -1.6; ALR inh: -1; Ecoli growth: 0.73; Beta2AR agonist: 8; FGF22 binding: x
COc1ccc(N2CCN(C(c3cccs3)C(C)NC(=O)c3ccco3)CC2)cc1 (centres undefined) is entered as LANA-H2B inh: 2.7; UCH37 DUB inh: 1.4; HNF4A DNA FP: -1.5; ALR inh: x; Ecoli growth: 0.65; Beta2AR agonist: 5; FGF22 binding: x
COc1cc(OC)cc(C(=O)Nc2ccc3c(c2)n(C)c(=O)n3C)c1 is entered as LANA-H2B inh: 2.4; UCH37 DUB inh: 2.5; HNF4A DNA FP: -1.8; ALR inh: -4; Ecoli growth: 0.72; Beta2AR agonist: 4; FGF22 binding: i
